Assay outcomes from PubChem.
NOMO-1 viab – STK33 inhibitor candidate reducing NOMO-1 cell viability; actives 7.5% (n = 37,000); inhibition, % (concentration not given with the values); NOMO-1 AML viability, CellTiter-Glo luminescence, 72 h;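 active = most replicates above 80%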;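 also: wells of about 30 µL received 25 nL stock; 0% = median of vehicle wells and 100% = reference inhibitor level; the first replicate is given; inactives centre near 10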
Active calls of the source: *. Only part of the results is shown, so the mix of outcomes need not match the whole.

Start of the listing, in advance, 3 compounds:
SMILES | NOMO-1 viab
CC(=O)Nc1ccc(NS(=O)(=O)c2ccc(Cl)c(C(=O)O)c2)cc1 | -8
C[C@H](CO)N1C[C@H](C)[C@H](CN(C)Cc2ccc(-c3ccccc3)cc2)Oc2ccc(NC(=O)Nc3ccccc3)cc2CC1=O | 113*
O=C(O)c1cccc(-n2nnnc2SCc2ccccn2)c1 | -3

This part in full, previewed entries included:
SMILES | NOMO-1 viab
CC(=O)Nc1ccc(NS(=O)(=O)c2ccc(Cl)c(C(=O)O)c2)cc1 | -8
C[C@H](CO)N1C[C@H](C)[C@H](CN(C)Cc2ccc(-c3ccccc3)cc2)Oc2ccc(NC(=O)Nc3ccccc3)cc2CC1=O | 113*
O=C(O)c1cccc(-n2nnnc2SCc2ccccn2)c1 | -3
Cc1noc(C)c1NC(=O)Nc1ccc2c(c1)CC(=O)N([C@H](C)CO)C[C@@H](C)[C@@H](CN(C)C(=O)Nc1c(C)noc1C)O2 | -10
C[C@@H]1CCCCO[C@H](CN(C)C(=O)Nc2cccc3ccccc23)[C@@H](C)CN([C@H](C)CO)C(=O)c2cc(NC(=O)Nc3ccc(C(F)(F)F)cc3)ccc2O1 | 31
O=c1c2ccccc2nc(CSc2nc(Cc3ccccc3)nc3ccccc23)n1-c1ccccc1 | 59
C[C@H](CO)N1C[C@H](C)[C@H](CN(C)Cc2ccc(C(F)(F)F)cc2)Oc2c(NC(=O)c3ccncc3)cccc2C1=O | -2
O=C(CSc1ccccc1C(=O)O)c1ccc(Cl)cc1 | 35
CN(CC(=O)Nc1ccc(F)cc1F)S(=O)(=O)c1ccccc1 | 36
C[C@@H]1O[C@@H](Oc2ccc3c(=O)c(-c4ccc(O)cc4)coc3c2)[C@H](O)[C@H](O)[C@H]1O | -8
COc1ccc(C(C)(C)C)cc1S(=O)(=O)NC1CC(C)(C)NC(C)(C)C1 | -7
CCn1c(SCC(=O)Nc2ccc3c(c2)OCCO3)nnc1-c1ccco1 | 32

Next section, overlapping the part above by 7 compounds.
SMILES | NOMO-1 viab
O=c1c2ccccc2nc(CSc2nc(Cc3ccccc3)nc3ccccc23)n1-c1ccccc1 | 59
C[C@H](CO)N1C[C@H](C)[C@H](CN(C)Cc2ccc(C(F)(F)F)cc2)Oc2c(NC(=O)c3ccncc3)cccc2C1=O | -2
O=C(CSc1ccccc1C(=O)O)c1ccc(Cl)cc1 | 35
CN(CC(=O)Nc1ccc(F)cc1F)S(=O)(=O)c1ccccc1 | 36
C[C@@H]1O[C@@H](Oc2ccc3c(=O)c(-c4ccc(O)cc4)coc3c2)[C@H](O)[C@H](O)[C@H]1O | -8
COc1ccc(C(C)(C)C)cc1S(=O)(=O)NC1CC(C)(C)NC(C)(C)C1 | -7
CCn1c(SCC(=O)Nc2ccc3c(c2)OCCO3)nnc1-c1ccco1 | 32
CCCCC[C@@H](O)CC(=O)CCc1ccc(O)c(OC)c1 | 30
COc1cc(OC)c(C2=NOC(C(=O)Nc3cccnc3)C2)cc1Cl (stereo unspecified) | 7
COC(=O)c1ccc(NC(=O)CSc2nc(-c3ccccc3)cc(=O)[nH]2)cc1 | 0
CNC[C@@H]1Oc2ccc(NC(=O)Nc3ccc(F)cc3)cc2C(=O)N([C@@H](C)CO)C[C@H]1C | 1
Cc1ccc(-n2c(SCC(=O)Nc3ccc(Br)cc3)nnc2-c2cccs2)cc1 | 9
COC(=O)c1cccc(NC(=O)CSc2nnc(-c3cc(OC)cc(OC)c3)o2)c1 | -4
CCOC(=O)c1c(NC(=S)Nc2cnccn2)sc2c1CCCCCC2 | 68
Cc1ccc(S(=O)(=O)N(C)C[C@@H]2Oc3ccc(NC(=O)Cn4cnnn4)cc3C(=O)N([C@H](C)CO)C[C@H]2C)cc1 | 5
C[C@H]1CN([C@@H](C)CO)C(=O)c2cc(NC(=O)CCCCCC(=O)Nc3ccccc3N)ccc2O[C@H]1CN(C)C(=O)Nc1ccc(C(F)(F)F)cc1 | -8
Cc1ccc(S(=O)(=O)N(C)C[C@@H]2Oc3c(NS(=O)(=O)c4cn(C)cn4)cccc3C(=O)N([C@H](C)CO)C[C@H]2C)cc1 | 31
COc1ccc(S(=O)(=O)Nc2cccc3c2O[C@@H](CN(C)Cc2ccncc2)[C@H](C)CN([C@H](C)CO)C3=O)cc1 | 17
NC(=O)c1ccc(-n2c(CCC(=O)O)ccc2-c2ccccc2)cc1 | -4
CN1C(=O)c2ccccc2NC(=O)/C1=C\c1ccccc1 | 2
Cc1cc(C(=O)Nc2cccc3c2O[C@H](CN(C)C)[C@H](C)CN([C@H](C)CO)C3=O)n(C)n1 | 5
Cc1c(NC(=O)CN(c2cc(Cl)c(Cl)cc2Cl)S(C)(=O)=O)cccc1[N+](=O)[O-] | 16
CN(C(=O)c1ccccc1)C(=O)N(C)C(=O)c1ccccc1 | -11
COc1ccc(CN(C)C[C@@H]2Oc3ccc(NC(=O)Cn4cnnn4)cc3C(=O)N([C@@H](C)CO)C[C@H]2C)cc1 | 4
C[C@@H]1CN([C@H](C)CO)C(=O)Cc2cc(NC(=O)Nc3ccc4c(c3)OCO4)ccc2O[C@@H]1CN(C)Cc1ccc2c(c1)OCO2 | 6
O=C(NCn1ccc(=O)[nH]c1=S)c1ccccc1 | -13
C[C@@H]1CN([C@@H](C)CO)C(=O)c2cccc(NC(=O)NC3CCCCC3)c2O[C@H]1CN(C)Cc1ccc(C(=O)O)cc1 | -12
C[C@@H]1CN([C@H](C)CO)C(=O)Cc2cc(NC(=O)Cc3cn(C)c4ccccc34)ccc2O[C@@H]1CN(C)Cc1ccc(C(F)(F)F)cc1 | 112*
C[C@@H]1CN([C@@H](C)CO)C(=O)c2cc(NC(=O)CCCN(C)C)ccc2O[C@@H]1CN(C)Cc1ccccc1 | -12
C[C@@H]1CCCCO[C@@H](CN(C)Cc2ccc(C(F)(F)F)cc2)[C@@H](C)CN([C@H](C)CO)C(=O)c2cc(NS(=O)(=O)c3ccc(F)cc3)ccc2O1 | 110*
C[C@H]1CN([C@@H](C)CO)C(=O)c2cccc(NC(=O)C3CCOCC3)c2O[C@H]1CN(C)C(=O)Nc1ccc(F)cc1 | -14
C[C@@H]1CN([C@@H](C)CO)C(=O)c2cc(NC(=O)Nc3ccc(C(F)(F)F)cc3)ccc2O[C@H]1CN(C)C(=O)Nc1cccc2ccccc12 | 44
C[C@@H]1CN([C@@H](C)CO)C(=O)Cc2cc(NC(=O)C3CC3)ccc2O[C@@H]1CN(C)C(=O)Nc1ccc2c(c1)OCO2 | 19
Cc1cc(C(=O)Nc2cccc3c2O[C@@H](CN(C)S(C)(=O)=O)[C@H](C)CN([C@@H](C)CO)C3=O)n(C)n1 | -11
COc1cc([N+](=O)[O-])ccc1NC(=O)CN(C)S(=O)(=O)c1ccccc1 | -10
C[C@@H]1CN([C@H](C)CO)C(=O)Cc2cc(NC(=O)Cn3cnnn3)ccc2O[C@@H]1CN(C)C(=O)Nc1ccccc1 | 16
C[C@H](CO)N1C[C@H](C)[C@@H](CN(C)Cc2ccc(-c3ccccc3)cc2)Oc2c(NS(=O)(=O)c3ccc(F)cc3)cccc2C1=O | 28
C[C@H]1CN([C@@H](C)CO)C(=O)c2cc(NC(=O)C3CCCCC3)ccc2O[C@@H]1CN(C)C(=O)Nc1ccc2c(c1)OCO2 | 23
C[C@H](CO)N1C[C@H](C)[C@@H](CN(C)Cc2ccccc2)Oc2ccc(NC(=O)Cc3ccccc3)cc2C1=O | -9
C[C@@H]1CN([C@@H](C)CO)C(=O)Cc2cc(NC(=O)Cn3cnnn3)ccc2O[C@@H]1CN(C)Cc1ccc(-c2ccccc2)cc1 | 6
C[C@@H]1CN([C@@H](C)CO)C(=O)c2cc(NC(=O)Cc3cn(C)c4ccccc34)ccc2O[C@@H]1CN(C)S(=O)(=O)c1ccc(F)cc1 | 40
COc1ccc(NC(=O)N(C)C[C@@H]2Oc3ccc(NC(=O)NC4CCCCC4)cc3C(=O)N([C@@H](C)CO)C[C@H]2C)cc1 | 11
CC1(C)CC[C@@]2(C(=O)O)C(C1)C1=CCC3[C@@]4(C)CC[C@H](O[C@@H]5O[C@H](C(=O)O)[C@@H](O[C@H]6OC[C@](O)(CO)[C@H]6O)[C@H](O)[C@H]5O)C(C)(C)C4CC[C@@]3(C)[C@]1(C)C[C@H]2O (stereo partly specified) | 1
CCCC(=O)Nc1ccc2nc(SCc3ccccc3C#N)sc2c1 | 42
C[C@@H]1CN([C@@H](C)CO)C(=O)c2cc(NC(=O)c3ccncc3)ccc2O[C@@H]1CN(C)CC1CCCCC1 | 1
COc1ccc(S(=O)(=O)Nc2cccc3c2O[C@@H](CN(C)C(=O)NC(C)C)[C@H](C)CN([C@H](C)CO)C3=O)cc1 | 15
C[C@@H]1CN([C@@H](C)CO)C(=O)c2cc(NS(=O)(=O)c3ccc(F)cc3)ccc2O[C@H]1CN(C)CC1CC1 | 4
O=C(CSC1CC(=O)N(c2ccccc2)C1=O)Nc1ccccc1F (stereo unspecified) | 26
C[C@@H]1CCCCO[C@@H](CN(C)C(=O)Nc2ccc3c(c2)OCO3)[C@@H](C)CN([C@H](C)CO)C(=O)c2cc(NC(=O)Nc3cccc4ccccc34)ccc2O1 | -7
COc1ccc(NC(=O)Nc2ccc3c(c2)CC(=O)N([C@H](C)CO)C[C@H](C)[C@H](CN(C)C(=O)Nc2ccc(OC)cc2)O3)cc1 | 37
CCn1cc(CN(C)C(=S)Nc2ccc(OC)c(OC)c2)c(C)n1 | 9
C[C@H](CO)N1C[C@H](C)[C@H](CN(C)Cc2ccc(C(=O)O)cc2)Oc2ccc(NC(=O)Nc3ccc(F)cc3)cc2CC1=O | -32
C[C@H](CO)N1C[C@H](C)[C@H](CN(C)CC2CC2)Oc2ccc(NC(=O)CCCN(C)C)cc2C1=O | -26
CCCOc1ccc(N)cc1N | 49
C[C@@H]1CCCCO[C@@H](CN(C)Cc2ccc(C(F)(F)F)cc2)[C@@H](C)CN([C@H](C)CO)C(=O)c2cc(NS(=O)(=O)c3cccs3)ccc2O1 | 110*
CCOC(=O)c1oc2ccc(C=NC(C)(C)C)c(Cl)c2c1C | 40
Cc1ccc(CC(CC(=O)O)C(=O)Nc2cc(C)ccc2C)cc1 (stereo unspecified) | -4
Cc1cc(Cl)ccc1N(CC(=O)Nc1c(C)n(C)n(-c2ccccc2)c1=O)S(C)(=O)=O | -10
C[C@@H]1CN([C@H](C)CO)C(=O)Cc2cc(NC(=O)NC3CCCCC3)ccc2O[C@H]1CN(C)Cc1ccccc1 | -14
COc1ccc(CN(C)C[C@@H]2Oc3ccc(NC(=O)Cc4ccccc4)cc3C(=O)N([C@@H](C)CO)C[C@@H]2C)cc1 | 21
CC(C)NC(=O)Nc1ccc2c(c1)CC(=O)N([C@@H](C)CO)C[C@H](C)[C@H](CN(C)Cc1ccc(C(F)(F)F)cc1)O2 | 23
N/C(CN1CCCCC1)=N\O | -2
COc1ccc(S(=O)(=O)N(C)C[C@H]2OCCCC[C@@H](C)Oc3ccc(NC(=O)Nc4cccc5ccccc45)cc3C(=O)N([C@H](C)CO)C[C@@H]2C)cc1 | -9
Cc1cc(C)nc(Nc2n[nH]c(-c3cccnc3)n2)n1 | 17
COC(=O)COc1cccc(NC(=O)c2ccc(C)cc2)c1 | 116*
CC(C)NC(=O)N(C)C[C@H]1Oc2ccc(NS(=O)(=O)c3cn(C)cn3)cc2CC(=O)N([C@H](C)CO)C[C@H]1C | -11
CC(C)NC(=O)Nc1cccc2c1O[C@@H](CN(C)S(=O)(=O)c1ccc(F)cc1)[C@H](C)CN([C@@H](C)CO)C2=O | -14
(list continues)
SMILES | NOMO-1 viab
C[C@H]1CN([C@@H](C)CO)C(=O)c2cccc(NC(=O)Nc3ccc(F)cc3)c2O[C@H]1CN(C)CC1CC1 | 22
C[C@H]1CN([C@@H](C)CO)C(=O)c2cccc(NC(=O)Nc3ccccc3)c2O[C@H]1CN(C)C(=O)Nc1ccccc1 | 24
COc1ccc(S(=O)(=O)Nc2ccc3c(c2)CC(=O)N([C@H](C)CO)C[C@H](C)[C@H](CN(C)S(=O)(=O)c2ccc(F)cc2)O3)cc1 | -7
O=S1(=O)C=C(SCCN2CCOCC2)c2ccccc21 | -28
Cc1noc(C)c1NC(=O)Nc1ccc2c(c1)C(=O)N([C@H](C)CO)C[C@H](C)[C@H](CN(C)S(=O)(=O)c1c(C)noc1C)OCCCC[C@@H](C)O2 | -10
O=C(COc1cc(Cl)c(Cl)cc1Cl)NCCN1CCOCC1 | -6
NC(=O)c1ccccc1NC(=O)COc1cc(Cl)c(Cl)cc1Cl | 23
Cc1noc(C)c1NC(=O)Nc1cccc2c1O[C@@H](CN(C)C(=O)Nc1cccc3ccccc13)[C@@H](C)CN([C@H](C)CO)C2=O | 9
Cc1cccc(NC(=O)Cn2nc(-c3ccc(Cl)cc3)c3ccccc3c2=O)c1 | 66
COc1ccc(NC(=O)Nc2cccc3c2O[C@@H](CN(C)C(=O)Nc2ccc(C(F)(F)F)cc2)[C@@H](C)CN([C@H](C)CO)C3=O)cc1 | 29
C[C@H](CO)N1C[C@H](C)[C@H](CN(C)S(C)(=O)=O)Oc2ccc(NC(=O)Cc3cn(C)c4ccccc34)cc2CC1=O | 20
C[C@@H]1CN([C@H](C)CO)C(=O)c2cc(NC(=O)Nc3ccccc3)ccc2O[C@@H]1CN(C)C(=O)Nc1ccccc1 | 10
C[C@@H]1CCCCO[C@H](CN(C)Cc2ccc(Cl)c(Cl)c2)[C@@H](C)CN([C@H](C)CO)C(=O)c2cc(NC(=O)Cc3ccccc3)ccc2O1 | 44
CC(C)(C)c1cc(C(F)(F)F)c(C#N)c(SCC(=O)Nc2cccc(F)c2)n1 | 39
Cc1ccc(S(=O)(=O)N(C)C[C@H]2Oc3ccc(NC(=O)c4ccncc4)cc3C(=O)N([C@H](C)CO)C[C@H]2C)cc1 | 22
